# Screening data from PubChem BioAssay.
# MT1-MMP promoter – MT1-MMP gene expression reporter suppression – cell-based, luciferase reporter, luminescence (AID 618) | MT1-MMP promoter luciferase reporter cells, luminescence | calls from a first round at 10 µM; hits with a dose series show EC50 in µM | 87,000 tested, 0.62% active;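 active means over half of the reporter light lost at 10 µM or EC50 under 50 µM; inactive means the rest and hits that failed the dose series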;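 further: actives suppress MT1-MMP promoter-driven transcription so potencies describe inhibitors; HT1080 fibrosarcoma cells; overnight exposure; toxic or luciferase-blocking compounds were not removed from the actives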
# Hsc70 ATP site – Hsc70 inhibitors, probe displacement, primary screen, biochemical, fluorescence polarization (AID 568). Hsc70 fluorescence polarization, probe displacement; higher % means a stronger effect; strong numbers were not always called active. displacement, % at 20 µM, or IC50 in µM where a hit was titrated. 83,000 tested, under 10 active;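 active means displacement above 50% without optical interference and an IC50 on retest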;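 further: ATPase domain with a fluorescein-tagged ATP probe; 0% = vehicle and 100% = excess ADP; read after one hour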
# WNV protease inh – blocks West Nile virus NS2B-NS3 protease activity. WNV NS2B-NS3 protease, fluorogenic substrate Ex360/Em465; active compounds read low. z-score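 (tested at a level between 10 and 100 µM)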. 65,000 tested, 0.18% active. P06935;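 active means z-score at -3 or under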;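 further: score is relative to mean and spread of the compound wells of a plate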
# Target sequence (P06935 1371-1501 limits assumed): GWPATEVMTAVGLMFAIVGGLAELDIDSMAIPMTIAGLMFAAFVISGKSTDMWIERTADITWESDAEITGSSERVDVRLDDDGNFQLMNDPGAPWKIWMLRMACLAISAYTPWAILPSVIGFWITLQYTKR
# Target sequence (P06935 1502-1679 limits assumed): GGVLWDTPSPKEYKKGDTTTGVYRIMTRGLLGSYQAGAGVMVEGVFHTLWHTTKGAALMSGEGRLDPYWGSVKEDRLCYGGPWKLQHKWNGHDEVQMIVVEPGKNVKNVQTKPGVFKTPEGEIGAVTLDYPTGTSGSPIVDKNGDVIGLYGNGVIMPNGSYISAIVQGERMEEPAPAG
# Starred values were filed as active, the others as inactive; i = inactive; / = not tested or not shown; + = active, no number; & = joins results of further samples. Some of the compounds tested; rates above refer to the full screens.
Structure | MT1-MMP promoter | Hsc70 ATP site | WNV protease inh
C=CCOc1ccc(/C=N/n2cncn2)cc1OC | i | 2.9% | 1.7
O=C(c1ccc2ccccc2n1)N1CCN(c2ccccc2)CC1 | i | 0.9% | 0.24
CC1(c2ccc(OC(F)F)cc2)NC(=O)N(CC(=O)Nc2ccc3c(c2)OCO3)C1=O (stereo unspecified) | i | -2.6% | 1.3
Cc1cc(NC(=O)COn2nnc3ccccc32)no1 | i | 0.0% | 0.75
CCc1ccccc1N(C(=O)Cn1nnc2ccccc21)C(C(=O)NCCOC)c1ccco1 (stereo unspecified) | i | -2.9% | 1.1
CCCCCc1nc2sc3c(c2c(=O)n1N)CCC3 | i | -2.5% | -0.42
Cc1cc(C(=O)CN2C(=O)CCC2=O)c(C)n1Cc1ccccc1 | i | -0.6% | 0.98
Cc1ccc(Cl)cc1NC(=O)COC(=O)C12CC3CC(CC(C3)C1)C2 | i | -0.3%&3.6% | /
CCCc1[nH]n(-c2nc3ccccc3s2)c(=O)c1C=NCC1CCCO1 (stereo unspecified) | i | -4.9% | -0.56
O=C1CN(S(=O)(=O)c2ccc(F)cc2)CC(=O)N1CCc1ccccc1 | i | 0.9% | -0.82
CCOCCCNS(=O)(=O)c1ccc2c(c1)OCCO2 | i | -3.6% | 1.5
Cc1ccc(NC2CC(=O)N(c3ccc(C)cc3)C2=O)cc1 (stereo unspecified) | i | 2.1% | /
CC(C)(C)C(=O)Nc1c2c(nc3c1CCC3)CCCC2 | i | -0.6% | -0.53
Nc1ccc2nc(-c3cccs3)[nH]c2c1 | i | 4.9% | /
O=C(O)C1CCCN1C(=O)Oc1ccccc1 (stereo unspecified) | i | -6.2% | -0.38
O=C(CC1(O)C(=O)N(Cc2ccc3c(c2)OCO3)c2ccccc21)c1ccccc1 (stereo unspecified) | i | 4.1% | 1.7
COc1cc2nc(N3CCNCC3)nc(N)c2cc1OC | i | 2.9% | -0.41
COc1ccc(C2NCCc3cc(OC)c(OC)cc32)cc1OC (stereo unspecified) | i | 4.0% | 0.23
O=c1n(S(=O)(=O)c2cccc3cccnc23)c2ccccc2n1S(=O)(=O)c1cccc2cccnc12 | i | 3.2% | /
COc1ccccc1Cc1noc(-c2cc(Cl)ccc2OC)n1 | i | -0.3% | -0.2
CCOC(=O)c1cccc(NC(=O)CN2CCN(c3ccc(OC)cc3)CC2)c1 | i | -5.6% | -0.62
Cc1ccc(NC(=O)CN(C)C(=O)CSc2nc3ccccc3c(=O)n2Cc2ccco2)cc1 | i | -5.7% | /
Cc1ccc(S(=O)(=O)NC2=NCN(C3CCCCC3)CN2)cc1 | i | 3.1% | 0.96
Cc1ccc2c(c1)C(C)CC(C)(C)N2C(=O)NC1CCCCC1 (stereo unspecified) | i | 6.5% | /

# Reformatted with each value named: entries from further up
Nc1ccc2nc(-c3cccs3)[nH]c2c1
  MT1-MMP promoter: i	Hsc70 ATP site: 4.9%	WNV protease inh: /

O=C(O)C1CCCN1C(=O)Oc1ccccc1 (stereo unspecified)
  MT1-MMP promoter: i	Hsc70 ATP site: -6.2%	WNV protease inh: -0.38

O=C(CC1(O)C(=O)N(Cc2ccc3c(c2)OCO3)c2ccccc21)c1ccccc1 (stereo unspecified)
  MT1-MMP promoter: i	Hsc70 ATP site: 4.1%	WNV protease inh: 1.7

COc1cc2nc(N3CCNCC3)nc(N)c2cc1OC
  MT1-MMP promoter: i	Hsc70 ATP site: 2.9%	WNV protease inh: -0.41

# Following part
Structure | MT1-MMP promoter | Hsc70 ATP site | WNV protease inh
Cc1cc(N2C(=O)C(=O)/C(=C(/O)c3ccc(F)cc3)C2c2ccc(F)cc2)no1 (stereo unspecified) | i | 5.3% | 0.05
COc1ccc(CCN2C(=O)C(O)=C(C(C)=O)C2c2ccccc2OC)cc1OC (stereo unspecified) | i | 8.9% | /
CCOC(=O)CC(=O)Nc1ccc(Br)cc1C(=O)O | i | -2.1% | -0.31
CCCn1c(=O)c2ccccc2n2c(SCC(=O)c3ccc(F)cc3)nnc12 | i | -1.5% | 0.59
CN(C)S(=O)(=O)c1cccc(C(=O)NC2CCCc3ccccc32)c1 (stereo unspecified) | i | 0.6% | /
COc1cccc(C2C3=C(N=C4SCC(=O)N42)c2ccccc2CC3)c1OC (stereo unspecified) | i | -2.9% | -0.19
CC(=O)NC1(c2nnnn2CCOC(=O)Nc2ccc(Cl)cc2)CCCCC1 | i | 4.9% | 1.4
COc1ccc(N2C(=O)C3CCCN3C2c2ccccc2OC)cc1 (stereo unspecified) | i | 1.3% | 0.63
Cc1cc(NCCCn2ccnc2)n2c(nc3ccccc32)c1C#N | i | 6.7% | 3.1
CN(C)CCCNC(=O)C1CCNCC1 | i | 7.2% | -0.88
CC(C)CNC(=O)C1C2C=CC(C2)C1C(=O)O (stereo unspecified) | i | 1.2% | -0.39
CCNC(=O)CC1C(=O)N(c2ccc(F)cc2)C(=O)N1CCC(C)C (stereo unspecified) | i | 1.9% | -0.19
Cc1ccc(-n2[nH]c(C)c(/C=N/n3c(C)nc4ccccc4c3=O)c2=O)cc1 | i | -2.7% | 0.55
CC1CN(C2CCN(S(=O)(=O)c3ccc4ccccc4c3)CC2)CC(C)O1 (stereo unspecified) | i | -2.9% | 0.27
Cc1ccc(S(=O)(=O)N2CCC(C(=O)OC(C)C(=O)NCc3ccc4c(c3)OCO4)CC2)cc1 (stereo unspecified) | i | 3.5% | -0.51
COc1ccc2ccccc2c1CN1CCN(C)CC1 | i | 6.2% | -0.89
O=C(CSc1nnc2c(Cl)cc(Cl)cn12)N1CCN(S(=O)(=O)c2ccccc2)CC1 | i | -2.9% | -0.34
Cn1c(-c2ccc(Cl)cc2)cnc1N | i | 0.2% | -1.2
COc1nc2cc(C)ccc2cc1-c1noc(-c2cccnc2)n1 | i | -16% | -0.7
O=C(Cn1cnc2sc(-c3ccccc3)cc2c1=O)N1CCOCC1 | i | -0.4% | -0.3
CNC(=O)c1sc2nc(-c3ccc(OC)cc3)cn2c1C | i | -2.0% | 0.67
Cc1cc(C)nc(N(C#N)Cc2ccccc2)n1 | i | 1.8% | 0.29
Cc1cc(Oc2ccc(C#N)cc2)nc(N2CCOCC2)n1 | i | 6.3% | /
Cc1ccc(NCc2nnc(SCc3ccc(C#N)cc3)n2Cc2ccco2)c(C)c1 | i | -15% | -0.34

# Next records:
# Each structure is followed by: MT1-MMP promoter | Hsc70 ATP site | WNV protease inh
c1ccc(CNc2nc(N3CCOCC3)nc(N3CCOCC3)n2)cc1
    i | -2.8% | /
Cc1ccc2[nH]c(=O)c3cc(C(=O)N4CCN(C(=O)c5ccco5)CC4)sc3c2c1
    i | 0.3% | 1.4
Cc1cc(NS(=O)(=O)c2ccc(Nc3nc(-c4sc(NC(=O)c5ccccc5)nc4C)cs3)cc2)no1
    i | -4.4% | /
COCCNC(=O)C(c1ccc(C)o1)N(C(=O)c1snc(C(N)=O)c1N)c1ccc(C)cc1 (stereo unspecified)
    i | 0.9% | 0.1
CC(=O)c1sc(NC(=O)C2(F)C(F)(F)C(F)(F)C(F)(F)C(F)(F)C2(F)F)nc1C
    i | -4.5% | -1
CSCCC(NC(=O)c1occc1C)C(=O)O (stereo unspecified)
    i | -4.0% | -0.08
Cc1ccc(C)c(S(=O)(=O)Nc2ccc3sc(C)nc3c2)c1
    i | 2.6% | /
O=C(COc1ccc(S(=O)(=O)NC2CCCCC2)cc1)NCC1CCCO1 (stereo unspecified)
    i | 1.0% | -0.51
CCOc1ccc(C(C)(C)C)cc1S(=O)(=O)N1CC(C)OC(C)C1 (stereo unspecified)
    i | 8.7% | 0.23
COc1ccc(N2C(=O)C(Cl)=C(N(CCO)Cc3ccccc3)C2=O)cc1
    i | -0.5% | -0.55
COc1cc(SC)ccc1C(=O)Nc1ccc(S(=O)(=O)N2CCCC2)cc1
    i | -0.3% | -0.99
CC(C)OCCCNC(=O)c1ccc(NS(C)(=O)=O)cc1
    i | 3.2% | -0.32
COc1cccc(N(CC(=O)N2CCN(c3ccccc3OC)CC2)S(C)(=O)=O)c1
    i | 1.8% | /
CCOC(=O)Cc1c(C)c2c(C)nn(-c3ccccc3)c2oc1=O
    i | 1.0% | 0.38
Cn1c(=O)cc(OCCCC(=O)N2CCN(c3ccccn3)CC2)c2ccccc21
    i | -11% | -2.9
O=C1C=C(Nc2ccc(O)cc2)CC(c2ccco2)C1 (stereo unspecified)
    i | 1.6% | /
N#Cc1c(-c2ccc(F)cc2)nc2n(c1=O)CCS2
    i | 2.6% | /
Nc1nc2ccc(C(=O)NC3CCCCC3)cc2s1
    i | -1.6% | -0.88
O=C(C1CCCN(S(=O)(=O)c2cnc[nH]2)C1)N1CCN(Cc2ccccc2)CC1 (stereo unspecified)
    i | 6.7% | -0.46
CC1Cc2ccccc2N1C(=O)CSc1nc2ccccc2o1 (stereo unspecified)
    i | -2.7% | -0.42
CCOC(=O)N1CCN(C(=O)c2cccn3c(=O)c4sccc4nc23)CC1
    i | 1.9% | 0.46
Cc1nc2sc3c(c2c(=O)o1)CC(C)(C)OC3
    i | -3.3% | -0.45
COc1cccc(C(=O)N(Cc2ccccc2)Cc2cc3cc4c(cc3[nH]c2=O)OCCO4)c1
    i | 3.2% | /
Cc1ccc(S(=O)(=O)CCC(=O)Nc2nc3c(s2)CCCC3)cc1
    i | -1.2% | /
O=C(O)C1C2C=CC(O2)C1C(=O)Nc1ccc2c(c1)OCCO2 (stereo unspecified)
    i | -5.7% | 0.18
Cc1c(Nc2ncnc3c2cnn3-c2ccccc2)c(=O)n(-c2ccccc2)n1C
    i | 1.8% | -0.24
CCOc1nc(-c2ccc(OC)cc2)ccc1-c1noc(C)n1
    i | -3.5% | -0.03
O=C(CN1CCN(c2ccccc2)CC1)Nc1c(C(=O)C2CC2)oc2ccccc12
    i | 3.8% | -0.82
CCCn1c2ccccc2c2nnc(SC(CC)C(=O)Nc3cc(C)on3)nc21 (stereo unspecified)
    i | 1.3% | /
Cc1ccc(C)c(S(=O)(=O)N2CC(=O)Nc3ccccc32)c1
    i | 0.2% | -1.1
CCCn1nnnc1SCC(=O)c1ccc(NC(C)=O)cc1
    i | -2.0% | 1.2
CN(C)CCCNCCCCNC(=O)/C=N/O
    i | 0.6% | 0.75
COc1ccc(N2C(=O)C3CCCN3C2c2ccc(C)o2)cc1Cl (stereo unspecified)
    i | -3.2% | -0.58
CN1/C(=C\P(=O)(N(C)C)N(C)C)C(C)(C)c2ccccc21
    i | -5.3% | -0.91
O=C(O)c1ccccc1SCc1ccc2c(c1)OCO2
    i | -0.9% | -0.63
O=C(NCc1ccccc1)c1cnc(-c2ccccn2)nc1C(F)(F)F
    i | 4.3% | /
Cc1cc(C)c(C)c(S(=O)(=O)N2CCN(C(=O)c3cc(=O)[nH]c4ccccc34)CC2)c1C
    i | 1.7% | /
COc1ccc(OCCc2nnc(N)s2)cc1
    i | -0.5% | /
CCOc1ccc(OCc2cccc(C(=O)O)c2)cc1
    + | 0.1% | 0.07
CN(C)Cc1c(O)ccc2occ(C(O)c3ccccc3)c12 (stereo unspecified)
    i | 3.1% | -0.24
O=c1c(-c2ccccc2)c(O)c2cccc3c2n1CCC3
    i | -2.1% | -0.05
Cc1cc(C)n(CC(O)Cn2c3ccc(Cl)cc3c3cc(Cl)ccc32)c(=O)n1 (stereo unspecified)
    i | 4.5% | /
C=CCC(NCCCO)c1cccc(OC)c1OC (stereo unspecified)
    i | 2.3% | 0.86
Cc1nc2ncnn2c(C)c1CCC(=O)N1CCOCC1
    i | -7.8% | 0.23
O=C(Nc1ccc2nn(-c3ccccc3)nc2c1)c1ccco1
    i | 2.3% | /
COC(=O)C1=C(C)Nc2ncnn2C1c1ccc(OC(=O)c2ccccc2)cc1 (stereo unspecified)
    i | -3.7% | -0.12
O=C(/C=C/c1ccccc1)CC(O)(c1ccccc1)C(F)(F)C(F)F (stereo unspecified)
    i | 0.6% | /
CC(C)CN(C(=O)CSc1nnc2c(Cl)cc(C(F)(F)F)cn12)C1CCS(=O)(=O)C1 (stereo unspecified)
    i | 1.8% | -0.6
NS(=O)(=O)c1cc2c(cc1Cl)NC(C(Cl)Cl)NS2(=O)=O (stereo unspecified)
    i | -4.8% | 1.9
Cc1nc(NCCN2CCOCC2)c2oc3ccccc3c2n1
    i | -3.0% | -0.13
Cc1ccc(-n2nc3cc(Cl)c(NC(=O)c4ccco4)cc3n2)cc1
    i | -11% | 0.16
Cc1cccc(OCCc2nnc(N)s2)c1C
    i | 9.8% | -0.51
Cc1cc(C)c2c(c1)NC(=O)C2(O)CC(=O)c1cccs1 (stereo unspecified)
    i | -1.5% | -0.6
S=C(c1ccc2c(c1)OCO2)N1CCCCC1
    i | -3.2% | /
CCN1CCCC1CNC(=O)c1cn(CC)c2ccc(S(=O)(=O)N3CCCCCC3)cc2c1=O (stereo unspecified)
    i | 6.3% | -1.1
CCNc1nc(N)c(C(=O)c2ccc(Cl)s2)s1
    i | 1.2% | 0.43
Cc1cc(C(=O)Nc2ccccc2C#N)n(-c2ccccc2)n1
    i | -1.3% | 0.28

# Quoted from the listing (2 entries):
# Each structure is followed by: MT1-MMP promoter | Hsc70 ATP site | WNV protease inh
O=c1c(-c2ccccc2)c(O)c2cccc3c2n1CCC3
    i | -2.1% | -0.05
Cc1cc(C)n(CC(O)Cn2c3ccc(Cl)cc3c3cc(Cl)ccc32)c(=O)n1 (stereo unspecified)
    i | 4.5% | /
